Assay outcomes from PubChem.
MLL AF4-AF9 inh: MLL-AF4/AF9 protein interaction inhibition; P42568; AlphaScreen, biotin-AF4 peptide binding to FLAG-AF9; inhibition, % at 10 µM; 0.47% of 350,000 active; AID 651704;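 active means every replicate reaching a set inhibition limit, whatever the replicate mean, cut at about 25% in these data; inconclusive means mean inhibition reaches that limit but some replicates miss it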;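 further: 0% = plate neutral control median and 100% = total signal loss; the record names both 10 and 1 µM as test concentration; the first replicate is given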
Target sequence (P42568 whole entry, looked up): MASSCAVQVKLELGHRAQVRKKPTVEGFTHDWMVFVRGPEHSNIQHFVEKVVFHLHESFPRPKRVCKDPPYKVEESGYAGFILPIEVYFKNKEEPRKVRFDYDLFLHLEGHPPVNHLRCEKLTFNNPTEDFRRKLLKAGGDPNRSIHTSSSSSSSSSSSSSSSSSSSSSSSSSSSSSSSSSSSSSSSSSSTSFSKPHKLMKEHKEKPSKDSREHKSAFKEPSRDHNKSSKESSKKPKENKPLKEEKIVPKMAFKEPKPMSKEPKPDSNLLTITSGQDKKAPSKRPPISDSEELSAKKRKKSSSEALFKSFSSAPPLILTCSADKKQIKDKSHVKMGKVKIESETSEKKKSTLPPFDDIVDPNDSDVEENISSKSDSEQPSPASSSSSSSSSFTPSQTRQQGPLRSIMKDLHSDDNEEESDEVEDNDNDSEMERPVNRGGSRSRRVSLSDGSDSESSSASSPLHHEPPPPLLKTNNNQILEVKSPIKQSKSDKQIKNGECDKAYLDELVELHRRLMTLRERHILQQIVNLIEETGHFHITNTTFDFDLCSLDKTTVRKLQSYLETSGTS
FGF22 binding: FGF22 (human) thermal shift binding. Q9HCT0. recombinant FGF22 thermal shift, SYPRO orange fluorescence; percent of sucrose octasulfate shift, DMSO zero. calls only at 9.99 µM. 1.5% of 340,000 active. AID 651658;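 active means melting point raised past a set limit in the mean and every replicate; inconclusive means no clear call; three in four hits are not shown here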
Target sequence (Q9HCT0 whole entry, looked up): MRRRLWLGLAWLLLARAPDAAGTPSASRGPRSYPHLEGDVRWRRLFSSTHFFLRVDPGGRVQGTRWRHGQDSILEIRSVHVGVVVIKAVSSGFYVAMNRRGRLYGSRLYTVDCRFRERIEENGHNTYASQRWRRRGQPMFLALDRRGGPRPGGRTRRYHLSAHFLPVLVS
T cruzi inh: blocks replication of Trypanosoma cruzi; T. cruzi beta-gal in NIH3T3, luminescence, 90 h; inhibition, % (test concentration not listed); 1.4% of 300,000 active; AID 1885;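 active means mean inhibition across valid replicates above about 55%, limit read from the data; inconclusive means mean below that limit but half or more replicates reach it; inactive means mean below it, under half of replicates reach it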;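 further: signal also drops with host cell toxicity which is not excluded here; 0% = plate median of DMSO wells and 100% = zero luminescence signal; higher percent means less beta-gal luminescence so fewer parasites; stock transfer was 50 nL into about 50 µL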
Beta cell apopt: blocks beta cell apoptosis | INS-1E cytokine-induced death, ATP luminescence, 48 h; percent of positive-control rescue, neutral wells zero | 0.8% of 300,000 active | protection from apoptosis, % (no concentration beside the values) | AID 435005;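 active means all replicates at 75% or more, or half of them and the mean; inconclusive means half reach 75% but not the mean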;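 further: 0% = cytokine-treated negative control wells and 100% = positive control rescue; higher means more ATP so stronger rescue from cytokine killing; wells of about 40 µL received 100 nL stock; the first replicate is given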
Ecoli rRNA inh: selective bacterial rRNA inhibition in E. coli; E. coli WT GFP vs humanized-ribosome RFP mutants, fluorescence, 24 h; active compounds read low; DMSO median 0, no signal -100; GFP signal change (wild-type ribosome), % (test concentration not listed); AID 720706; 1.6% of 350,000 active;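 active means significant combined selectivity score with lowered wild-type GFP, culture density cut under 30%, mutant RFP and density less affected; inactive means any of these conditions unmet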; further: one replicate is shown; some compounds called inactive have numbers as strong as hits
Calb FLC: C. albicans growth modulation with fluconazole | C. albicans CaCi-2 (fluconazole-resistant clinical isolate) + fluconazole, Alamar Blue growth, 48 h | growth inhibition, % (concentration not given with the values) | 0.57% of 300,000 active;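 active means most replicates above 75%; inconclusive means exactly half above 75%; inactive means most below 75%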;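 further: all wells also contain fluconazole at 8 µg/ml as a sub-toxic cotreatment; 0% = median of DMSO wells and 100% = median of geldanamycin control wells; wells of about 8 µL received 7.5 nL stock; the first replicate is given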
RanGTP-Impb inh: inhibitors of RanGTP-importin-beta interaction, primary screen, biochemical, FRET, CFP-Ran, YFP-importin-beta, homogeneous; inhibition, % (no concentration beside the values); cell-free CFP-Ran/YFP-importin-beta FRET ratio; 1.1% of 300,000 active;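 active means most replicates above 15%; inconclusive means exactly half above 15%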;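 further: 0% = DMSO wells and 100% = Ran loaded with GDP instead of GTP; wells of about 40 µL received 100 nL stock; the first replicate is given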
ALR H2O2 inh: blocks human ALR sulfhydryl oxidase activity. inhibition, % (no concentration beside the values). purified ALR, DTT oxidation, H2O2 HRP-luminol luminescence. AID 485317. 3.8% of 290,000 active. P55789;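 active means mean and each replicate at 75% or more; inconclusive means only one of the two met; inactive means neither met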;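 further: stock transfer was 7.5 nL into about 7.5 µL; 0% = neutral wells and 100% = wells with inactivated enzyme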
Target sequence (P55789 whole entry, looked up): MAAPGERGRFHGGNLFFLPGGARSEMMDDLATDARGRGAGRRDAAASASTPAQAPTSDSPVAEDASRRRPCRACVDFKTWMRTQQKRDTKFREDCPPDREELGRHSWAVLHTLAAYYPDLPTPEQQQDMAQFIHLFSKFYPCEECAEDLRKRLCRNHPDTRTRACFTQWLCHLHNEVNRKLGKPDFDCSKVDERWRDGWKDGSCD
Ecoli rRNA inh OD600: recorded beside Ecoli rRNA inh, whose call it bears; OD600 change, %; measured here: OD600 growth;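 optical density of the mix in the first replicate; 0 = DMSO median and -100 = no signal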
Ecoli rRNA inh RFP: second read-out of Ecoli rRNA inh, no call of its own (marks repeat the call); RFP signal change, %; measured here: RFP humanized mutant strains;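 first replicate; 0 = DMSO median and -100 = no signal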
* marks the source's active call; other numbers are inactive results; i = inactive; ? = inconclusive; / = not tested or not shown; + = active, no number; & = joins results of further samples. These rows are one share of the data; count on the stated rates, not on these rows.

SMILES | MLL AF4-AF9 inh | FGF22 binding | T cruzi inh | Beta cell apopt | Ecoli rRNA inh | Ecoli rRNA inh OD600 | Ecoli rRNA inh RFP | Calb FLC | RanGTP-Impb inh | ALR H2O2 inh
C=CCN1C(=O)c2ccccc2NC1c1cc(Br)cs1 (centres undefined) | -3.1 | i | -2 | -1 | -16 | -25 | -4.0 | -7 | 1.2 | 0
Cc1cccn2c(=O)c3cc(C(=O)NCCC4=CCCCC4)n(C)c3nc12 | -4.3 | i | 0 | 2 | 11 | 11 | 4.7 | -9 | -2.1 | 3
CN(C)c1nc(C#N)nc(N2CCOCC2)n1 | / | / | 0 | -5 | / | / | / | 14 | 3.5 | 2
O=C(Cc1ccccc1)OCC(=O)c1cccc([N+](=O)[O-])c1 | 1.1 | i | / | -1 | 25 | 20 | 2.8 | / | / | -4
O=C(COc1cccc(Cl)c1)Nc1ccc(N2CCOCC2)cc1 | / | / | -4 | 2 | / | / | / | -4 | -2.7 | 10
Cc1cc(NC(=O)c2ccccc2)c(Cl)cc1N | -0.3 | i | 24 | / | 6 | 7 | 0.8 | 2 | -7.1 | /
O=C(CSc1nnc(Nc2ccccc2)s1)NN1C(=O)NC2(CCCCC2)C1=O | / | / | -15 | -4 | / | / | / | ? | -1.3 | 4
CC(C)Oc1ccc(S(=O)(=O)N2CCCCC2)cc1NC(=O)CN1C(=O)NC2(CCCC2)C1=O | -3.2 | i | 13 | 4 | 5 | 12 | 0.0 | -6 | 0.1 | -4
CC1CCC(C(C)C)C(OP(=O)(c2ccccc2)C(O)c2ccncc2)C1 (centres undefined) | -0.9 | i | 9 | 2 | -21 | -25 | -6.3 | 17 | -3.6 | -2
c1ccc(Cc2noc(CN3CCN(Cc4ccc5c(c4)OCO5)CC3)n2)cc1 | 0.3 | i | 47 | 2 | 5 | 2 | 2.5 | -41 | -1.7 | -7
Cc1cc(S(=O)(=O)N2CCOCC2)ccc1OCC(=O)Nc1ccc(Br)cc1F | 1.6 | i | -16 | -6 | 9 | 8 | -0.8 | -2 | -2.9 | 1
CCCCNC(=O)CSc1nc2c(sc(=S)n2-c2cc(Cl)ccc2OC)c(=O)[nH]1 | -1.2 | + | 0 | -8 | -2 | -2 | -2.5 | 4 | 1.3 | 5
CCc1cccc(OCCCCNCCCOC)c1 | -1.0 | i | 30 | -5 | 2 | 0 | 4.0 | -3 | 0.1 | -23
COc1ccc(CNC(=O)CCSc2ccc(F)cc2)cc1OC | -1.3 | i | -21 | 6 | -4 | -4 | 1.5 | -21 | 3.0 | -5
COc1ccc(-c2cn3cc(C)ccc3n2)cc1OC | / | / | 0 | -3 | / | / | / | -1 | -3.5 | -16
C=CCC[C@@H](Cc1ccc(F)cc1)C(=O)OC[C@H](Cc1c[nH]c2ccccc12)NC(=O)[C@@H](CC=C)CC(=O)N[C@@H](CO)Cc1ccccc1 | -1.4 | i | / | 1 | 1 | -3 | -4.6 | / | / | -5
O=C(c1ccc(F)c(S(=O)(=O)N2CCOCC2)c1)N(CCc1ccccc1)Cc1ccccc1 | -0.8 | i | 29 | -8 | -19 | -34 | -2.6 | 10 | 7.5 | -8
Cc1cccc(N2C(=O)CS/C2=N\NC(=O)c2ccc(Cl)cc2)c1C | / | / | -4 | -23 | / | / | / | 11 | 7.7 | /
Cc1ccc(NC(=O)NC(=O)c2ccccc2)cc1F | / | / | 0 | 1 | / | / | / | 10 | 1.0 | -17
CC(C)CN(C#N)c1nc(N2CCOCC2)nc(N2CCOCC2)n1 | / | / | 30 | -4 | / | / | / | 5 | 11 | -9
Cc1ccc(-c2cc(C(=O)Nc3cc(C)on3)c3ccccc3n2)c(C)c1 | -3.8 | i | 24 | 9 | -5 | -14 | -4.0 | 32 | 0.8 | -15
COc1cc(NS(=O)(=O)c2ccc(NC(=O)c3ccc(F)cc3)cc2)ncn1 | -0.7 | i | -11 | -4 | 7 | 5 | 0.6 | -5 | 0.1 | 2
Nc1nc(SCC(=O)Nc2ccc(OCc3ccccc3)cc2)n[nH]1 | 8.2 | i | -13 | -2 | -9 | -6 | -1.2 | 0 | -1.0 | /
O=c1c2ccccc2[nH]c(=S)n1CCCn1ccnc1 | -2.4 | i | -19 | -6 | 18 | 14 | 1.9 | -2 | -4.7 | -10
CCOc1ccc(NC(=O)CN2CCc3ccccc3C2)cc1 | -5.4 | i | 3 | 4 | -12 | -9 | 1.9 | -7 | 3.9 | -16

Following part:
SMILES | MLL AF4-AF9 inh | FGF22 binding | T cruzi inh | Beta cell apopt | Ecoli rRNA inh | Ecoli rRNA inh OD600 | Ecoli rRNA inh RFP | Calb FLC | RanGTP-Impb inh | ALR H2O2 inh
COc1ccc(-c2nn(-c3ccccc3)cc2CNCc2cccnc2)c(F)c1 | -2.2 | i | 32 | -2 | -4 | -1 | 22 | -2 | 1.9 | -5
Cc1cccc(C(=O)NCCNC(=O)c2cccnc2)c1 | -3.0 | i | 1 | -5 | 8 | 13 | 1.2 | -3 | -0.8 | 1
CCOC(=O)/C=C/C(=O)OCc1csc(CC(=O)Nc2ccccc2C)n1 | -15 | i | -2 | -10 | 8 | 8 | 8.1 | 7 | 0.8 | 6
CC(=O)NC(CC(=O)OCC(=O)Nc1ccc2c(c1)OCO2)c1ccccc1 (centres undefined) | ? | i | 5 | -3 | / | / | / | -6 | 0.4 | /
Cn1c(=O)c2c(nc(Oc3cccc(Br)c3)n2C)n(C)c1=O | -0.2 | i | -7 | 2 | 10 | 1 | 1.1 | -32 | ? | -13
COc1ccc(OC)c(NC(=O)CCN2CCN(CCO)CC2)c1 | 1.2 | i | -8 | -2 | 11 | 10 | 2.2 | -4 | -1.2 | -29
CCOC(=O)c1ccc(NC(=O)CSc2ccc(-c3ccncc3)nn2)cc1 | -1.1 | i | 22 | -1 | 4 | 6 | 2.5 | 9 | -2.0 | 3
COc1ccc2c(c1OC)C(=O)N1c3ccccc3C(=O)N(c3ccc(F)cc3)C21 (centres undefined) | / | / | -8 | 4 | / | / | / | 2 | 2.2 | -7
Cc1cc(F)ccc1S(=O)(=O)N1CCCOC1CNC(=O)C(=O)NCCC1=CCCCC1 (centres undefined) | -10 | i | 5 | 1 | 16 | 9 | -6.1 | 4 | 3.1 | -17
CCOC(=O)C1CCCN(C(=O)CCCOc2cc(=O)n(C)c3ccccc23)C1 (centres undefined) | / | / | 23 | 1 | / | / | / | 14 | 1.5 | -3
CCSc1nnc(NC(=O)C(C)Sc2nc3ccccc3[nH]2)s1 (centres undefined) | / | / | -16 | -4 | / | / | / | 3 | 2.9 | 12
CCOc1ccccc1CN1CCNC(=O)C1CC(=O)NCCC1=CCCCC1 (centres undefined) | -2.5 | i | 11 | -8 | -3 | -7 | 3.3 | 2 | 5.6 | 2
COC(=O)c1cc(NC(=O)c2cccc(C(F)(F)F)c2)c(=O)oc1C | 0.8 | i | -2 | -3 | 4 | 7 | 2.8 | -11 | -0.8 | -7
CCOc1ccc(N2CC(=O)SC2=S)cc1 | 1.4 | i | -8 | -2 | 0 | -1 | 18 | -27 | -2.8 | -8
CCOC(=O)N1CCN(c2ccc(S(=O)(=O)N(Cc3ccccc3)Cc3ccccc3)cn2)CC1 | / | / | 44 | 104* | / | / | / | 3 | -2.6 | -4
O=C(CSc1nnc(NC(=O)c2ccco2)s1)Nc1ccc2c(c1)OCCO2 | 1.2 | i | -1 | 4 | 5 | 19 | 19 | 3 | -4.3 | 2
Cc1ccc(-n2ccn(CC(=O)NCCc3ccccc3)c(=O)c2=O)cc1C | 1.1 | i | -1 | / | 9 | 5 | 1.2 | -14 | ? | -1
Cc1ccc(-n2nnnc2Sc2nc([N+](=O)[O-])nn2C)cc1 | -0.8 | i | 47 | -17 | 10 | 7 | -7.1 | 18 | -0.4 | /
COc1ccc([N+](=O)[O-])cc1-n1cccc1 | 1.1 | i | 6 | 0 | / | / | / | 0 | 3.9 | -6
C[C@H](CO)N1C[C@H](C)[C@@H](CN(C)S(=O)(=O)c2ccccc2)Oc2ccc(NS(=O)(=O)c3cccs3)cc2C1=O | -3.1&0.1 | i | / | 1 | 0&-12 | -2&-6 | -1.0&-4.5 | / | / | 3
O=C(Nc1ccccc1Cl)c1ccc(-c2ccccn2)s1 | / | i | 12 | -8 | 6 | 16 | -0.9 | -4 | -4.9 | -3
COc1cc([N+](=O)[O-])ccc1NC(=O)C[n+]1cccc(C)c1 | / | / | -7 | 0 | / | / | / | 24 | -2.2 | /
Cc1ccc(C)c(CSc2nnc(-c3cccs3)n2Cc2ccco2)c1 | / | / | 23 | 1 | / | / | / | 58 | 1.4 | -7
CN1C(=O)c2ccccc2Sc2ccc(NC(=O)N3CCCC3)cc21 | / | / | -1 | 8 | / | / | / | 1 | 0.7 | /
O=C(CN1C(=O)NC2(CCc3ccccc32)C1=O)Nc1ccccc1OC(F)F (centres undefined) | 0.1 | i | / | 2 | -3 | 1 | 1.2 | / | / | -22

(cont.)
SMILES | MLL AF4-AF9 inh | FGF22 binding | T cruzi inh | Beta cell apopt | Ecoli rRNA inh | Ecoli rRNA inh OD600 | Ecoli rRNA inh RFP | Calb FLC | RanGTP-Impb inh | ALR H2O2 inh
COc1cc(C(=O)Nc2ccc(O)cc2)ccc1OC(C)=O | / | / | -21 | 9 | / | / | / | -9 | 1.0 | /
Cc1cccc(NC(=O)CN2CCC(NC(=O)C3CCCCC3)CC2)c1C | 2.2 | i | -18 | 9 | 17 | 12 | 2.0 | -6 | 0.4 | -3
OCCC1CN(Cc2cnc(-c3ccccc3)s2)CCN1CCc1ccccc1 (centres undefined) | 0.4 | i | 37 | 0 | 1 | 5 | -0.9 | -1 | 1.3 | -4
O=C(NS(=O)(=O)c1ccc2c(c1)OCCO2)c1ccccc1 | / | / | 2 | -2 | / | / | / | -4 | 2.1 | 0
O=C(Nc1cccnc1)C1CCCN(c2ncnc3c2nc2n3CCCCC2)C1 (centres undefined) | -5.8 | i | -27 | -2 | -2 | -4 | -0.7 | -9 | 3.6 | -4
CNC(=O)CN(Cc1ccccc1)S(=O)(=O)c1ccc(Cl)cc1 | -0.7 | i | 0 | -7 | 5 | 10 | 3.8 | -7 | 4.9 | -29
COc1ccc2nc(NC(=O)CSC(C)C(=O)Nc3cc(C)on3)sc2c1 (centres undefined) | -6.3 | i | -17 | 8 | -4 | 6 | 3.0 | 7 | 4.3 | 32
CCOC(=O)C1CCN(c2c(Nc3ccc4c(c3)OCCO4)c(=O)c2=O)CC1 | 0.5 | i | 0 | / | 4 | 6 | 0.9 | -6 | -1.6 | /
CCOc1ccc(N=C2SCC(=O)N2CC)cc1 | -15 | i | 1 | 1 | 3 | -1 | -1.8 | 4 | -3.6 | -1
Cc1cccc(/C=C(\c2nc3ccccc3[nH]2)S(=O)(=O)c2ccccc2)c1 | 2.8 | i | 47 | / | 9 | 6 | 1.3 | 36 | -1.6 | /
O=C(NCc1ccc(-c2csnn2)cc1)c1cccs1 | -4.4 | i | -10 | -3 | 0 | 4 | -1.4 | 2 | -1.2 | 0
